Assay outcomes: PubChem, several laboratories
INS promoter inh – TRM-6 insulin promoter activity inhibition; TRM-6 cells (human fetal islet line), insulin promoter-eGFP reporter, imaging; reporter expression induced with tamoxifen; inhibition, % at 2 µM; 130,000 compounds, 0.9% hits; AID 1273;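 active = inhibition above the mean plus 3 SD, with well images judged a real hit on visual review, cut at about 60% in these data, passing the limit was not always enough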
HSV replic up – HSV replication enhancement; HSV replication augmentation in cells, fold increase; maximum fold increase; 220,000 compounds, 0.005% hits;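 active = peak rise of 1.5-fold or more in the series; tested in PC3 cells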;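 also: first round at 10 µM; read as green reporter fluorescence; hits show the peak of a series up to 25 µM; 1 = signal of infected wells without compound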
GALR2 ag – agonists of human galanin receptor 2 (GALR2); O43603; GALR2-expressing cells, agonist activation read-out; activation, %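 (tested at 5 µM)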; 140,000 compounds, 0.48% hits; AID 803;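 active = above mean plus 3 SD of all compounds, about 5% in these data, not always enough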;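 also: 0% = vehicle buffer wells and 100% = reference agonist at full effect; tested in CHO reporter cells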
Target sequence (O43603 whole entry, looked up): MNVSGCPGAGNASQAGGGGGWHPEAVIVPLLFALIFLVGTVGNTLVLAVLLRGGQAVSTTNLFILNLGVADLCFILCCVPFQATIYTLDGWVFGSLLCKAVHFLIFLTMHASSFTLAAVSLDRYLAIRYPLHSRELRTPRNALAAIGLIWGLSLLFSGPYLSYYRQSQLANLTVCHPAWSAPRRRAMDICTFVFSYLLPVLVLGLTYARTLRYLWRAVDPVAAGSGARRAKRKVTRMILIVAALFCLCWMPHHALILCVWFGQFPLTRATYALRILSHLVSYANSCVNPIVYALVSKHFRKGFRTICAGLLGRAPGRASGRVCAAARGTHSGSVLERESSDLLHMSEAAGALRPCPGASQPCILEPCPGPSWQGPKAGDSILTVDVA
PKD1 inh – blocks activity of human protein kinase D1 | PKD1 kinase fluorescence polarization assay | inhibition, %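 (about 10 µM by stock and volumes)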 | 200,000 compounds, 0.056% hits | AID 797;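 active = inhibition of 50% or more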;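 also: controls were vehicle for no effect and a reference inhibitor for full effect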
RGS16-Gao – RGS16-Galphao interaction regulator (human) | AID 1441 | O15492+P09471 | binding response (% of control), % at 10 µM | 220,000 compounds, 0.38% hits | bead-based flow cytometry RGS16-Galphao binding, fluorescence; actives lie on both sides;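 active = below 25% or above 175%, edge rows of some plates excepted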;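 also: Galphao activated by GDP with aluminum fluoride before binding; 100% = wells without compound and 0% = beads without RGS; some results beyond the cut were filed as inactive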
Target sequence (O15492 whole entry, looked up): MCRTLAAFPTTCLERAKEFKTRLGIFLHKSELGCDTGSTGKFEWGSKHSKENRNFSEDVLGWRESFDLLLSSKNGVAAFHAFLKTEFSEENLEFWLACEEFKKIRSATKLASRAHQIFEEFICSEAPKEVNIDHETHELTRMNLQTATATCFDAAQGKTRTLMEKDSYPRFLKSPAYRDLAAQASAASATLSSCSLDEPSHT
Target sequence (P09471 whole entry, looked up): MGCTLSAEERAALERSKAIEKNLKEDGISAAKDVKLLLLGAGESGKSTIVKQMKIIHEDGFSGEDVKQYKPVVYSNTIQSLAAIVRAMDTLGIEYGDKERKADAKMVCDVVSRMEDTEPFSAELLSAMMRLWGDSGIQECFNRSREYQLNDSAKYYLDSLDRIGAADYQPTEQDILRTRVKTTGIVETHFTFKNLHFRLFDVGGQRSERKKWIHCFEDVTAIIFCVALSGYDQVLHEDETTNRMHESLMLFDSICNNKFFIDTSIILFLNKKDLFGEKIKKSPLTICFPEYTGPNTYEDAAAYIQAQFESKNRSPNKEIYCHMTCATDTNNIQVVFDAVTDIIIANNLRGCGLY
INS promoter inh cell count – further read-out of INS promoter inh, marked with its call; normalized cell count, %; measured here: cell count, toxicity; reference of the scale not given here;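 cells exposed to compound for 48 h; stained nuclei by imaging scaled within each plate; lower means fewer cells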
HSV replic up primary fold – also measured in HSV replic up; calls as there; fold increase; compound at 10 µM; measured here: primary screen fold increase 10 uM; tested in PC3 cells;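 GFP signal in the first replicate; 1 = infected wells without compound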
Numbers without * were called inactive.

`Cc1c(N/C(=N/S(=O)(=O)c2ccc(Cl)cc2)c2ccccc2)c(=O)n(-c2ccccc2)n1C` gave INS promoter inh -38.5, HSV replic up inactive, GALR2 ag 0.2, PKD1 inh -3.6, RGS16-Gao 109.8, INS promoter inh cell count 126.2 and HSV replic up primary fold 1.04.
For CCN1CCc2nc(SCC(=O)Nc3ccc(OC)cc3)c(C#N)cc2C1 the results were INS promoter inh 0.0, HSV replic up inactive, GALR2 ag -0.6, PKD1 inh -8.7, RGS16-Gao 97.8, INS promoter inh cell count 118.8 and HSV replic up primary fold 1.01.
COc1cccc2c(=O)n(CC(=O)Nc3cccc(F)c3)ccc12 was read as HSV replic up inactive, GALR2 ag -5.2, PKD1 inh 16.4, RGS16-Gao 95.4 and HSV replic up primary fold 0.94.
Screening CCOC(=O)C1=C(O)/C(=C/c2ccc(-c3ccccc3C(=O)O)o2)SC1=Nc1ccc(OC)cc1 returned INS promoter inh -34.3, HSV replic up inactive, GALR2 ag -3.7, PKD1 inh -3.7, RGS16-Gao 92.1, INS promoter inh cell count 116.8 and HSV replic up primary fold 1.05.
For COc1ccc(Cn2c(O)c(/C=C3/C=CC=N3)c(=O)[nH]c2=O)cc1 the results were HSV replic up inactive, RGS16-Gao 96.3 and HSV replic up primary fold 0.98.
O=C(O)[C@H]1CCCC[C@H]1C(=O)Nc1ccc(Nc2ccccc2)cc1 was read as INS promoter inh 8.3, HSV replic up inactive, GALR2 ag -3.1, PKD1 inh 6.8, RGS16-Gao 99.2, INS promoter inh cell count 107.2 and HSV replic up primary fold 1.11.
For COc1ccc(Cc2noc(-c3ccc(OC)c(OC)c3)n2)cc1OC the results were INS promoter inh 45.5, HSV replic up inactive, GALR2 ag -1.6, PKD1 inh 1.6, RGS16-Gao 105.5, INS promoter inh cell count 70.4 and HSV replic up primary fold 0.98.
Screening Cc1ccc(NC(=O)Cn2nnc3ccccc3c2=O)cc1C returned INS promoter inh 53.9, HSV replic up inactive, PKD1 inh -0.6, RGS16-Gao 92.8, INS promoter inh cell count 115.0 and HSV replic up primary fold 0.95.
For CC(=O)N1CCCN(Cc2cn(-c3ccc(C)cc3)nc2-c2cccc(C)c2)CC1 the results were HSV replic up inactive, PKD1 inh -3.6, RGS16-Gao 103.6 and HSV replic up primary fold 0.87.
`COc1ccsc1C(=O)Nc1ccc(F)cc1F` gave INS promoter inh 15.4, HSV replic up inactive, PKD1 inh 2.6, RGS16-Gao 101.6, INS promoter inh cell count 89.7 and HSV replic up primary fold 0.93.
For S=c1[nH]nc(-c2ccco2)n1-c1ccccc1Cl the results were HSV replic up inactive, PKD1 inh 5.5, RGS16-Gao 94.0 and HSV replic up primary fold 1.13.
For CN1CCN(Cc2nc3c(c(=O)n(C)c(=O)n3C)n2Cc2cccc3ccccc23)CC1 the results were INS promoter inh 23.1, HSV replic up inactive, GALR2 ag -1.3, PKD1 inh -6.9, RGS16-Gao 114.6, INS promoter inh cell count 107.2 and HSV replic up primary fold 0.88.
Screening O=C1CCCC/C1=C/NCc1ccccc1 returned HSV replic up inactive, PKD1 inh -3.1, RGS16-Gao 97.8 and HSV replic up primary fold 1.02.
`COC(=O)c1ccc(OC)c(CSc2nnc(COc3ccccc3)o2)c1` gave HSV replic up inactive, GALR2 ag -2.0, PKD1 inh 0.4, RGS16-Gao 117.0 and HSV replic up primary fold 0.93.
`CCOc1ncccc1C(=O)OCCN1C(=O)c2ccccc2C1=O` gave HSV replic up inactive, GALR2 ag -1.6, PKD1 inh 2.3, RGS16-Gao 97.5 and HSV replic up primary fold 0.97.
For CC(C)(C)C1CCC(C(=O)OCC(=O)c2ccc[nH]2)CC1 (stereo unspecified) the results were INS promoter inh 28.0, HSV replic up inactive, GALR2 ag 0.9, PKD1 inh 1.4, RGS16-Gao 107.7, INS promoter inh cell count 113.7 and HSV replic up primary fold 0.96.
Cc1ccc(CNC(=O)C(NS(=O)(=O)c2cccc3nsnc23)c2ccccc2)cc1 (stereo unspecified) was read as INS promoter inh -33.3, HSV replic up inactive, GALR2 ag -3.1, PKD1 inh 0.6, RGS16-Gao 104.7, INS promoter inh cell count 102.8 and HSV replic up primary fold 0.95.
Cc1ccc2c(c1)nc(-n1nc(C)cc1C)c1nnnn12 was read as INS promoter inh 21.4, HSV replic up inactive, PKD1 inh 2.5, RGS16-Gao 94.9, INS promoter inh cell count 103.6 and HSV replic up primary fold 0.95.
CCSc1nnc(NC(=O)[C@H](C)NC(=O)c2ccccc2Cl)s1 was read as HSV replic up inactive, PKD1 inh 0.0, RGS16-Gao 102.2 and HSV replic up primary fold 0.98.
Cn1c(=O)c2c(nc(SCc3nn[nH]n3)n2Cc2ccccc2F)n(C)c1=O was read as INS promoter inh 50.0, HSV replic up inactive, GALR2 ag -0.7, PKD1 inh -0.1, RGS16-Gao 104.8, INS promoter inh cell count 73.8 and HSV replic up primary fold 0.93.
Screening CCNC(=O)c1cc2c(=O)n3cccc(C)c3nc2n(CCc2ccccc2)c1=N returned INS promoter inh 0.0, HSV replic up inactive, GALR2 ag -0.3, PKD1 inh 3.7, RGS16-Gao 97.1, INS promoter inh cell count 83.8 and HSV replic up primary fold 1.04.
Screening C[C@H](NC(=O)OCc1ccccc1)c1nnc([C@H](C)NC(=O)OCc2ccccc2)o1 returned HSV replic up inactive, RGS16-Gao 101.9 and HSV replic up primary fold 0.97.
Screening Cc1cccc(/C(N)=N/OC(=O)c2cccs2)c1 returned INS promoter inh 23.3, HSV replic up inactive, GALR2 ag -2.1, PKD1 inh -8.8, RGS16-Gao 88.5, INS promoter inh cell count 165.2 and HSV replic up primary fold 0.92.
Screening Cc1ccc(NC(=S)N(Cc2ccco2)C(C)c2cccs2)c(Cl)c1 (stereo unspecified) returned INS promoter inh 40.0, HSV replic up inactive, PKD1 inh 1.4, RGS16-Gao 96.0, INS promoter inh cell count 95.3 and HSV replic up primary fold 0.84.
NC(=O)C1CCCN(CCc2ccccc2)C1 (stereo unspecified) was read as INS promoter inh 43.2, HSV replic up inactive, GALR2 ag -1.2, PKD1 inh -6.0, RGS16-Gao 99.6, INS promoter inh cell count 87.2 and HSV replic up primary fold 1.11.
Screening CCOC(=O)N1CCC(NC(=O)c2ccccc2C(=O)O)CC1 returned HSV replic up inactive, RGS16-Gao 107.7 and HSV replic up primary fold 1.02.
CCc1cc(S(N)(=O)=O)cc(CC)c1NC(C)=O was read as HSV replic up inactive, RGS16-Gao 82.5 and HSV replic up primary fold 0.83.
CCC1CCC/C1=N\NC(=O)CCC(=O)Nc1ccccc1Cl (stereo unspecified) was read as INS promoter inh -28.1, HSV replic up inactive, GALR2 ag -1.4, PKD1 inh -4.2, RGS16-Gao 105.9, INS promoter inh cell count 131.1 and HSV replic up primary fold 0.96.
Cc1ccc(C(=O)Nc2ccc(Oc3ccc(C(=O)O)c(C(=O)O)c3)cc2)cc1C was read as INS promoter inh -10.0, HSV replic up inactive, GALR2 ag -0.3, PKD1 inh -2.7, RGS16-Gao 99.8, INS promoter inh cell count 98.6 and HSV replic up primary fold 1.06.
For COc1cccc(CN2CCC(CO)(CC3CCCCO3)CC2)c1 (stereo unspecified) the results were HSV replic up inactive, PKD1 inh -4.2, RGS16-Gao 109.4 and HSV replic up primary fold 0.92.
`C/C(=N/NC(=O)CC1N=C(Cc2ccccc2)NNC1=O)c1cccnc1` (stereo unspecified) gave HSV replic up inactive, PKD1 inh -2.4, RGS16-Gao 79.5 and HSV replic up primary fold 1.06.
For O=C(Nc1ccccc1C(=O)NCc1cccnc1)c1cccc([N+](=O)[O-])c1 the results were INS promoter inh 23.5, HSV replic up inactive, PKD1 inh -2.3, RGS16-Gao 103.0, INS promoter inh cell count 89.5 and HSV replic up primary fold 0.96.
C=CCSc1nnc(NC(=O)c2ccc(NC(C)=O)cc2)s1 was read as HSV replic up inactive, RGS16-Gao 102.8 and HSV replic up primary fold 0.88.
For COc1ccc(OC)c(-n2c(-c3cnccn3)n[nH]c2=S)c1 the results were INS promoter inh 0.0, HSV replic up inactive, GALR2 ag -1.7, PKD1 inh -7.0, RGS16-Gao 17.3, INS promoter inh cell count 120.5 and HSV replic up primary fold 0.85.
Screening CC(NC(=O)C1CCCN(S(=O)(=O)c2cccc3nonc23)C1)c1ccccc1 (stereo unspecified) returned INS promoter inh -42.5, HSV replic up inactive, GALR2 ag -0.8, PKD1 inh -0.6, RGS16-Gao 103.0, INS promoter inh cell count 160.3 and HSV replic up primary fold 0.72.
`O=C(Nc1ccc(S(=O)(=O)N2CCOCC2)cc1)c1ccc2c(c1)S(=O)(=O)c1ccccc1C2=O` gave INS promoter inh -11.8, HSV replic up inactive, PKD1 inh 7.1, RGS16-Gao 98.4, INS promoter inh cell count 82.9 and HSV replic up primary fold 0.86.
For COc1cc(C(=O)O)ccc1OCC(=O)N1CCOCC1 the results were HSV replic up inactive, GALR2 ag -1.8, PKD1 inh -6.2, RGS16-Gao 102.5 and HSV replic up primary fold 0.96.
Screening CNCCCOc1ccc(Cl)cc1C(C)(C)C returned INS promoter inh -83.3, HSV replic up inactive, PKD1 inh -6.3, RGS16-Gao 102.4, INS promoter inh cell count 70.8 and HSV replic up primary fold 0.81.
Screening COc1ccc(S(=O)(=O)Nc2ccc3oc(C)c(C(=O)O)c3c2)cc1 returned HSV replic up inactive, GALR2 ag 0.5, PKD1 inh -3.0, RGS16-Gao 103.8 and HSV replic up primary fold 0.86.
`O=C(O)C1CC=CCC1C(=O)NCc1cn2ccccc2n1` (stereo unspecified) gave HSV replic up inactive, GALR2 ag -2.3, PKD1 inh -4.2, RGS16-Gao 133.1 and HSV replic up primary fold 0.87.
Screening O=C(N/N=C/c1ccncc1)c1ccc(-n2cccc2)cc1 returned INS promoter inh 16.7, GALR2 ag 1.2, PKD1 inh 12.8, RGS16-Gao 77.5 and INS promoter inh cell count 85.7.
`COCCCNC(=O)CC1Oc2ccccc2NC1=O` (stereo unspecified) gave HSV replic up inactive, GALR2 ag -2.4, PKD1 inh 6.9, RGS16-Gao 153.4 and HSV replic up primary fold 0.99.
`Cc1ccc(NC(=O)c2cnn(-c3ccccc3)c2NC(=O)c2ccco2)cc1C` gave HSV replic up inactive, GALR2 ag -0.8, PKD1 inh -4.4, RGS16-Gao 109.3 and HSV replic up primary fold 0.94.
For Cc1ccc(S(=O)(=O)c2nnn(-c3cccc(F)c3)c2N)cc1 the results were INS promoter inh 26.7, HSV replic up inactive, PKD1 inh -4.0, RGS16-Gao 99.2, INS promoter inh cell count 93.8 and HSV replic up primary fold 1.05.
`COC(=O)c1ccc(Oc2cc(C)nc(NCc3ccccc3)n2)cc1` gave HSV replic up inactive, GALR2 ag -0.2, PKD1 inh -8.3, RGS16-Gao 104.3 and HSV replic up primary fold 0.92.
Cc1cccc(C)c1NC(=S)N/N=C1\CC2CC=CC12 (stereo unspecified) was read as HSV replic up inactive, PKD1 inh -3.8, RGS16-Gao 104.1 and HSV replic up primary fold 1.01.
`COc1ccccc1OCc1nc(C#N)c(N2CCC(C(N)=O)CC2)o1` gave HSV replic up inactive, GALR2 ag -1.3, PKD1 inh 0.1, RGS16-Gao 103.7 and HSV replic up primary fold 0.93.
For O=C(Nc1ccc(N2CCOCC2)cc1)c1ccccc1SCC(=O)N1CCCC1 the results were INS promoter inh 0.0, HSV replic up inactive, PKD1 inh -1.1, RGS16-Gao 96.2, INS promoter inh cell count 145.2 and HSV replic up primary fold 0.93.
Cc1ccccc1CN1C(=O)c2ccccc2Sc2ccc(C(=O)O)cc21 was read as INS promoter inh 35.7, HSV replic up inactive, PKD1 inh 5.7, RGS16-Gao 103.4, INS promoter inh cell count 178.4 and HSV replic up primary fold 0.93.
CS/C(=N\S(=O)(=O)c1cccs1)Nc1ccc(F)cc1 was read as INS promoter inh 8.8, HSV replic up inactive, GALR2 ag -0.6, PKD1 inh -2.4, RGS16-Gao 100.2, INS promoter inh cell count 90.1 and HSV replic up primary fold 1.11.
O=C(N/N=C/c1ccc(N2CCOCC2)o1)c1ccccc1[N+](=O)[O-] was read as INS promoter inh 0.0, HSV replic up inactive, GALR2 ag -0.5, PKD1 inh 1.2, RGS16-Gao 99.6, INS promoter inh cell count 100.9 and HSV replic up primary fold 1.05.

3 consecutive entries from above, for reference:
Cc1cccc(C)c1NC(=S)N/N=C1\CC2CC=CC12 (stereo unspecified) was read as HSV replic up inactive, PKD1 inh -3.8, RGS16-Gao 104.1 and HSV replic up primary fold 1.01.
`COc1ccccc1OCc1nc(C#N)c(N2CCC(C(N)=O)CC2)o1` gave HSV replic up inactive, GALR2 ag -1.3, PKD1 inh 0.1, RGS16-Gao 103.7 and HSV replic up primary fold 0.93.
For O=C(Nc1ccc(N2CCOCC2)cc1)c1ccccc1SCC(=O)N1CCCC1 the results were INS promoter inh 0.0, HSV replic up inactive, PKD1 inh -1.1, RGS16-Gao 96.2, INS promoter inh cell count 145.2 and HSV replic up primary fold 0.93.
